KCNQ2 block: KCNQ2 channel blockers in CHO-K1 cells – cell-based, FluxOR thallium flux, B-score, primary screen (AID 2156) | B-score at 10 µM | 310,000 compounds, 1.1% hits | 20 min; stronger effect = lower value; only compounds with negative scores are shown here; some inactives read as strong as hits | O88943;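 active = fluorescence ratio B-score at most minus 3 library SDs, with starting brightness B-score within 2 library SDs, cut at about -5.5 in these data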
Target sequence (O88943 whole entry, looked up): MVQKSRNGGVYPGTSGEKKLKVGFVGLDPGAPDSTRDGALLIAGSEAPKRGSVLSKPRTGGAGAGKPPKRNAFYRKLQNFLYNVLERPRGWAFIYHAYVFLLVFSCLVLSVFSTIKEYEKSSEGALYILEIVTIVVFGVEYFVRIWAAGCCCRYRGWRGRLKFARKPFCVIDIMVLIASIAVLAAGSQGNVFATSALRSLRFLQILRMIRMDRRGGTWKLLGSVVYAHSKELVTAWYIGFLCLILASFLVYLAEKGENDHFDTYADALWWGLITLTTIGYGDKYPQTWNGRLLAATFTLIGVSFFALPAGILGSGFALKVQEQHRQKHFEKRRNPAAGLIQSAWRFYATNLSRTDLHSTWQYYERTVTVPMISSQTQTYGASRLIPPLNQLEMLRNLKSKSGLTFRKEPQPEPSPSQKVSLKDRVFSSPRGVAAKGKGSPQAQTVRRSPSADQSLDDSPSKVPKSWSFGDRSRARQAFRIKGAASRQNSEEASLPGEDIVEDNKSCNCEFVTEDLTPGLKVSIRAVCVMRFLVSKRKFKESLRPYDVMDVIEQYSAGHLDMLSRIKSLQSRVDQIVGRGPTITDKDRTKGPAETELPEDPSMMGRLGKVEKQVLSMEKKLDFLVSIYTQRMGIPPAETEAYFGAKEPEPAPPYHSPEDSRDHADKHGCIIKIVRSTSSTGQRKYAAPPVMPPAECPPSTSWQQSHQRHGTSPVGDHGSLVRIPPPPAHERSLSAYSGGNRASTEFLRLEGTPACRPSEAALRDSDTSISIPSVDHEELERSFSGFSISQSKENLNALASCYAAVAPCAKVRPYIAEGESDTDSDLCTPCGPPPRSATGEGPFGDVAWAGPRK
KCNQ2 block baseline: further read-out of KCNQ2 block, marked with its call; B-score; measured here: initial fluorescence intensity artifact check;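 brightness before thallium and not channel activity; 0 = typical well and far values either way flag optical interference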
* = called active by the depositor; i = inactive. A portion of the library; count on the stated rates, not on these rows.

SMILES | KCNQ2 block | KCNQ2 block baseline
Cc1ccc(NC(=O)C(=O)NCCCN2CCCC2=O)c(C)c1 | i | 1.7
Cc1cccc(N=C2SC(C)CN2C(=O)CN2C(=O)NC3(CCCC3)C2=O)c1 (configuration not stated) | i | -0.24
COc1cc(OC)c2c(-c3ccccc3)cc(=O)oc2c1C(CCN1CCCC(C)C1)c1ccc(N(C)C)cc1 (configuration not stated) | i | 0.01
Nc1nc(N2C(=O)C3CC=CCC3C2=O)nn1-c1ccccc1 (configuration not stated) | i | 0.06
COc1cc(OC)cc(C(=O)NCC(C)NC(=O)c2cc(OC)cc(OC)c2)c1 (configuration not stated) | i | -3.7
Cc1ccc(Cn2nnc3c(=O)[nH]c(C4CCCN(C(=O)Nc5ccc(F)cc5)C4)nc32)cc1 (configuration not stated) | i | 1.2
CC(C)[C@H](NC(=O)C1CCN(C(=O)[C@@H]2CCCN2)CC1)C(=O)NCc1ccc(F)cc1 | i | -0.71
CCOC(=O)c1cc2c(ccn2-c2ccc(F)cc2)n1CC(=O)N(CC)CC | i | -0.7
O=C(Nc1ccc2c(c1)OCCO2)c1cccc2nc3ccccc3nc12 | i | -0.06
O=C(NCC(c1cccs1)N1CCOCC1)c1cc2ccccc2o1 (configuration not stated) | i | -1.2
CCCCN(CCCC)S(=O)(=O)c1ccc2oc(C(=O)N3CCOCC3)c(C)c2c1 | i | -2.8
COc1cccc(C(C(=O)NC(C)(C)C)N(CC(C)C)C(=O)CCC(=O)Nc2cc(C)on2)c1OC (configuration not stated) | i | 0.06
CCn1c(NCc2ccccn2)nc2c1c(=O)n(C)c(=O)n2C | i | -0.97
O=C(NC1CCCCC1)N(Cc1ccccc1)Cc1ccco1 | -8.1* | -0.09*
COc1ccc(NC(=O)CSc2nnc(Cc3cccn3C)n2CCc2ccccc2)c(OC)c1 | i | -0.38
O=C(c1ccccc1)c1n[nH]c(-c2ccccc2)cc1=O | i | -0.21
CCC(C)(C)n1nnnc1C(c1ccc(OC)c(OC)c1)N1CCN(c2cccc(OC)c2)CC1 (configuration not stated) | i | -0.86
Cc1ccc(-n2nc(-c3ccco3)cc2C(=O)NCc2cccnc2)cc1 | i | 1.2
Clc1ccc(CNc2ccccn2)cc1 | i | -0.33
COc1ccc(OCc2cc(C(=O)N(C)Cc3nnc(C)o3)no2)c(Cl)c1 | i | -1.7
CCCNC(=S)N1CC2(C)CN(C(=O)C(=O)OCC)CC(C)(C1)C2=O | i | 0.35
CCN(CC)CCN1C(=O)C(O)=C(C(=O)c2cc3cccc(OC)c3o2)C1c1ccc(F)cc1 (configuration not stated) | i | 0.88
Cc1cc(-c2nn(C)c(=O)c3ccccc23)ccc1CNC(=O)NC1CCCCC1 | i | 0.03
N/C(Cn1cncn1)=N\NC(=O)C(=O)Nc1ccccc1 | i | -0.67
COc1ccc(C(CNC(=O)c2ccc(S(=O)(=O)N(C)C)cc2)N2CCCC2)cc1 (configuration not stated) | i | 1.1

Some of the entries so far, tab-delimited:
SMILES	KCNQ2 block	KCNQ2 block baseline
COc1cccc(C(C(=O)NC(C)(C)C)N(CC(C)C)C(=O)CCC(=O)Nc2cc(C)on2)c1OC (configuration not stated)	i	0.06
COc1ccc(NC(=O)CSc2nnc(Cc3cccn3C)n2CCc2ccccc2)c(OC)c1	i	-0.38
CC(C)[C@H](NC(=O)C1CCN(C(=O)[C@@H]2CCCN2)CC1)C(=O)NCc1ccc(F)cc1	i	-0.71
CCC(C)(C)n1nnnc1C(c1ccc(OC)c(OC)c1)N1CCN(c2cccc(OC)c2)CC1 (configuration not stated)	i	-0.86
COc1ccc(C(CNC(=O)c2ccc(S(=O)(=O)N(C)C)cc2)N2CCCC2)cc1 (configuration not stated)	i	1.1

Another view of some results above.
> CC(C)[C@H](NC(=O)C1CCN(C(=O)[C@@H]2CCCN2)CC1)C(=O)NCc1ccc(F)cc1
  KCNQ2 block: i
  KCNQ2 block baseline: -0.71
> CCOC(=O)c1cc2c(ccn2-c2ccc(F)cc2)n1CC(=O)N(CC)CC
  KCNQ2 block: i
  KCNQ2 block baseline: -0.7
> O=C(Nc1ccc2c(c1)OCCO2)c1cccc2nc3ccccc3nc12
  KCNQ2 block: i
  KCNQ2 block baseline: -0.06

The listing continues:
SMILES | KCNQ2 block | KCNQ2 block baseline
Cc1cc(C(C)(C)C)cc(C)c1Cn1c2[n+](c3ccc(C(F)(F)F)cc31)CCCCC2 | i | 0.52
O=C1C2C3C=CC(C2C(=O)N1c1ccccc1O)C1C2C(=O)N(c4ccccc4O)C(=O)C2C31 (configuration not stated) | i | 0.27
CN1C(=O)C2C=CC1C1C(=O)N(c3ccccc3)C(=O)C21 (configuration not stated) | i | -0.53
O=C(NCc1ccccc1F)C1CCCN(S(=O)(=O)c2ccc(-n3cnnn3)cc2)C1 (configuration not stated) | i | -0.83
COc1ccc2c(c1)C(=O)/C(=C/C=C/c1ccccc1)CC2 | i | 0.28
Cc1cc(Nc2ccccc2)n(-c2cccc(Cl)c2)n1 | -6* | -1.2*
COCCOc1ccc(C(F)(F)F)cc1NC(=O)Cc1ccc(S(=O)(=O)N2CCOCC2)s1 | i | 0.04
O=C(NCC(=O)N(c1ccccc1F)C(C(=O)NC1CCCC1)c1ccco1)c1ccco1 (configuration not stated) | i | -1.4
CCSc1ncc(CO)c(N)n1 | i | -0.5
COc1ccccc1N=c1c2c([N+](=O)[O-])cc([N+](=O)[O-])cc2n(O)n1-c1ccccc1OC | i | 0.25
COc1ccc(NC(=O)c2cc(S(=O)(=O)NCC3COc4ccccc4O3)ccc2F)cc1 (configuration not stated) | i | -0.9
O=C(CSc1nnc(-c2ccccc2)n1-c1ccc(Cl)cc1)NNC(=S)Nc1ccccc1 | i | 1.4
CN(Cc1cccs1)c1ncnc2sccc12 | i | 0.11
O=C(C[n+]1ccc(/C=N/O)cc1)N1CCCCC1 | i | 2.3
CCOc1ccc(C(CC(=O)O)NC(=O)CCCOc2ccc(Cl)cc2C)cc1 (configuration not stated) | i | 0.22
CCN(CC)CCOc1ccccc1C(C)=O | i | 1.2
Cc1cccc(N2C(=O)/C(=C\c3ccc(OC(F)F)cc3)c3ccccc3C2=O)c1 | i | 0.47
COCCNC(=O)c1cc(C(=O)CC(C)C)c[nH]1 | i | -0.1
COc1ccc(NC(=O)N2CCN(S(C)(=O)=O)CC2)cc1OC | i | 0.02
Brc1ccc(C2C3=C(Nc4ncnn42)c2ccccc2OC3c2ccncc2)cc1 (configuration not stated) | i | -2.5
COc1ccc(C(=O)Nn2c(SCC(=O)NCC3CCCO3)nc3ccccc3c2=O)cc1 (configuration not stated) | i | 3.9
COc1ccc(CC2(CO)CCN(Cc3c(C)nn(C(C)C)c3C)CC2)cc1 | i | 0.18
Cc1ccc2oc(=O)c3cc(C(=O)NCc4ccco4)sc3c2c1 | i | -1.6
CCCNC(=O)Cn1nc(C(F)(F)F)c2c1CCC2 | i | 1.6
O=C(Nc1cccc(Cl)c1N1CCCC1)c1ccc(Br)o1 | -7.9* | -3.3*
SMILES | KCNQ2 block | KCNQ2 block baseline
COc1ccc(CCNC(=O)CSc2ccsc2[N+](=O)[O-])cc1OC | i | 0.2
CCOc1cc(S(=O)(=O)Nc2ccc(CC)cc2)ccc1Cl | i | 0.68
COc1ccc(OC)c(NC(=O)C2CCC(CNc3c(N4CCOCC4)c(=O)c3=O)CC2)c1 (configuration not stated) | i | 0.67
O=C(NCc1ccco1)c1cnn2c1NC(c1ccccc1)CC2C(F)(F)F (configuration not stated) | i | -1
O=C(NCCN1CCCCC1)c1cc(OCC(F)(F)F)ccc1OCC(F)(F)F | i | -1.4
Cc1ccc(NC(=S)N2CCCC(c3nc4ccccc4[nH]3)C2)cc1 (configuration not stated) | i | 1.7
CC1Sc2ccc(S(=O)(=O)N3CCN(c4ccccc4)CC3)cc2NC1=O (configuration not stated) | i | -4.1
O=C(c1cccs1)N(C(=O)c1cccs1)c1ccccn1 | i | -1.9
COc1cccc(N2CCN(C(=O)C3CCCN(S(=O)(=O)c4ccc5c(c4)oc(=O)n5C)C3)CC2)c1 (configuration not stated) | i | 1.5
Cn1c(=NC(=O)C(C)(C)C)sc2cccc(F)c21 | i | 1.2
CSc1sc(C(=O)NC(=O)NCc2cccnc2)c(C)c1-c1ccon1 | i | -0.62
Cc1cc(C)c(S(=O)(=O)N2CCCCC2CCNC(=O)C(=O)NC2CC2)c(C)c1 (configuration not stated) | i | 1.1
O=C(O)C1CC(O)CN1c1nc(Cl)ccc1[N+](=O)[O-] (configuration not stated) | i | 0.19
COc1ccccc1CCNC(=O)C(=O)c1cn(CC(=O)N2CCOCC2)c2ccccc12 | i | 0.07
CCOC(=O)N1CCN(C(=O)c2cn(C)c3ccc(S(=O)(=O)N4CCOCC4)cc3c2=O)CC1 | i | 1.3
Cc1nn(-c2ccc(F)cc2)c(Cl)c1/C=C1\C(=O)Nc2ccccc21 | i | -0.6
Cc1ccc(S(=O)(=O)NC(=O)N(CCC#N)Cc2ccccc2)cc1 | i | -0.49
CCOC(=O)NC1=NCC(C)S1 (configuration not stated) | i | -1.2
CC(=O)Nc1ccc2nc(NC(=O)CS(=O)(=O)c3ccccc3)sc2c1 | i | 0.09
COCCNC(=O)C(c1ccc(F)cc1)N(C(=O)CCC(=O)Nc1ccccn1)c1cccc(C)c1 (configuration not stated) | i | 0.47
COc1ccc(S(=O)(=O)N2CCN(CCc3ccccc3)CC2)cc1 | i | -0.02
Cc1cccc(CCNC(=O)c2cc(S(=O)(=O)N3CCCC3)cn2C)c1 | i | 1
c1ccc(Cn2cc(CN3CCCO3)c(-c3ccc4c(c3)OCO4)n2)cc1 | i | -0.03
CSc1ccc(CCNC(=O)C2CCCN(c3ncnc4c3nc3n4CCCCC3)C2)cc1 (configuration not stated) | i | -0.38
CCOc1cc2[nH]c(=O)n(CCCC(=O)N(C)Cc3ccccc3)c(=O)c2cc1OCC | i | 0.63
SMILES | KCNQ2 block | KCNQ2 block baseline
CC(C)NC(=O)CN1CCC(O)(c2ccccc2)CC1 | i | 0.55
CCCCN(C)CC(O)Cn1cc(/C=C/C(=O)c2ccc(C)cc2)c2ccccc21 (configuration not stated) | -9.7* | 0.4*
O=C(c1cccs1)N1CCC2(O)CCCCC2C1c1ccc(F)cc1 (configuration not stated) | i | -0.27
OC(COc1ccc(Cl)c2ccccc12)CN1CCN(c2ccccn2)CC1 (configuration not stated) | i | 0.36
COc1cccc(NC(=O)CN2C(=O)C(c3ccc(C)cc3)=NC23CCCCCC3)c1 | i | 0.55
O=C1/C(=C/c2ccc([N+](=O)[O-])cc2)CCc2ccccc21 | i | 0.01
COc1ccc(OC)c(CCNC(=O)CCC(=O)N2CCOc3ccc(C)cc32)c1 | i | 0.09
C/C(=N\NC(=O)C1=NNC(=O)C1C)c1cccs1 (configuration not stated) | i | -0.3
Cc1ccc(C(=O)N/N=C\c2ccc(-c3ccc(Cl)cc3)o2)cn1 | i | -0.69
NC(=O)c1ccccc1NC(=S)NC(=O)c1ccc(Br)o1 | i | 0.05
N#Cc1nc(-c2ccc(OCc3ccccc3)cc2)oc1NCCCn1ccnc1 | i | -0.75
CCCC(C)NC(=O)CN1C(=O)c2cccc3cccc1c23 (configuration not stated) | i | 0.58
COC(=O)C1CCN(C(=O)CSc2nnc(-c3ccncc3)o2)CC1 | i | -1.2
COc1cccc(-c2nc(N3CCN(c4ccccc4)CC3)c3ccccc3n2)c1O | i | -1.1
Cc1ccc(C)c(CN2C(=O)C3(OCCCO3)c3ccccc32)c1 | i | -0.24
Cc1cccc(-n2cc(CNCCN3CCOC3=O)c(-c3cccc(F)c3)n2)c1 | i | 0.06
CCOC(=O)N1CCN(C(=O)c2ccc(Cn3c(=S)[nH]c4ccc(Br)cc4c3=O)cc2)CC1 | i | -0.93
NC(=O)CC(NC(=O)c1cccc(Br)c1)c1ccc(NC2CCCCCCCCCCC2)c([N+](=O)[O-])c1 (configuration not stated) | i | -0.28
CC(=O)Oc1ccc(/C=N/NC(=O)c2ccc(N(C)S(=O)(=O)c3ccccc3)cc2)cc1 | i | 2.1
Cc1cccnc1NC(=O)CCCc1c[nH]c2ccccc12 | i | -1.3
O=C(O)c1ccc(-c2ccc(/C=C3\NC(=O)N(Cc4ccc(Cl)cc4)C3=O)o2)cc1Cl | i | 2.6
NCCCC[C@H]1CNC(=S)N1CCCCC1CCCCC1 | i | 0.94
O=[N+]([O-])c1ccc(C2CC(c3ccccc3)=Nc3ccccc3S2)cc1 (configuration not stated) | i | 2.1
COC(=O)C1=C(C)N(C)C(=O)NC1c1c(OC)ccc2ccccc12 (configuration not stated) | i | -0.8
N[C@@H](C(=O)N[C@@H]1C(=O)N2C(C(=O)O)=C(Cl)CS[C@H]12)c1ccccc1 | i | -0.15

Continued, overlapping the part above by six compounds.
SMILES | KCNQ2 block | KCNQ2 block baseline
Cc1cccnc1NC(=O)CCCc1c[nH]c2ccccc12 | i | -1.3
O=C(O)c1ccc(-c2ccc(/C=C3\NC(=O)N(Cc4ccc(Cl)cc4)C3=O)o2)cc1Cl | i | 2.6
NCCCC[C@H]1CNC(=S)N1CCCCC1CCCCC1 | i | 0.94
O=[N+]([O-])c1ccc(C2CC(c3ccccc3)=Nc3ccccc3S2)cc1 (configuration not stated) | i | 2.1
COC(=O)C1=C(C)N(C)C(=O)NC1c1c(OC)ccc2ccccc12 (configuration not stated) | i | -0.8
N[C@@H](C(=O)N[C@@H]1C(=O)N2C(C(=O)O)=C(Cl)CS[C@H]12)c1ccccc1 | i | -0.15
O=C(/C=C/c1ccco1)NCC1OCCc2ccccc21 (configuration not stated) | i | -1.6
COc1ccc(S(=O)(=O)N2CCOC2CNC(=O)C(=O)NCCN2CCOCC2)cc1OC (configuration not stated) | i | 1
COc1ccc(OC)c(NC(=O)CCN2C(=O)c3cccc([N+](=O)[O-])c3C2=O)c1 | i | -0.02
CC(=O)Nc1ccc(NS(=O)(=O)c2ccc3c(c2)oc(=O)n3C)cc1 | i | -0.12
CN(C)S(=O)(=O)c1ccc(S(=O)(=O)N2CCCC2)cc1 | i | 0.12
Cc1snc(SCc2c(F)cccc2Cl)c1C#N | i | 0.42

High-throughput results from PubChem BioAssay.
